# Screens: PubChem BioAssay, several laboratories
# BJeLR viability – MLPCN primary cell-based screen for lethality selective to Ras in HRASV12 cells; AID 1554, 2009; inhibition, % (no concentration beside the values); 300,000 tested, 0.17% active; BJeLR (HRASV12) viability, CellTiter-Glo ATP luminescence, 48 h; reference of the scale not given here;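 active means replicate mean above 50%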;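 further: 50 nL library stock added to about 25 µL; numbers are from one replicate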
# PrP 5UTR inh – inhibition of PrP 5' UTR reporter expression; cell-based PrP 5' UTR mRNA reporter, plate reader; inhibition, % (test concentration not listed); 340,000 tested, 0.35% active; AID 488862, 2010;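 active means every replicate at 50% or more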;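 further: 0 = median of the neutral control wells; tested in H4 reporter cells; numbers are from one replicate; inactives centre near -14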
# RN4220 kill – growth inhibition of S. aureus RN4220, primary screen, OD600 | 16 h | inhibition, % (concentration not given with the values) | 330,000 tested, 0.33% active | AID 1259311, 2017;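 active means z-score of -3 or lower and OD600 up to 0.18 on both plates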;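 further: plate controls were untreated cells for no effect and reference antibiotic for full effect; stock transfer was 100 nL into about 80 µL; one replicate is shown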
# Sa ugtP lethal – growth inhibition of ugtP-null S. aureus, primary screen, RN4220 ugtP deletion, OD600. 16 h; some inactives read as strong as hits. growth inhibition, % (no concentration beside the values). 330,000 tested, 0.54% active. AID 1259309, 2017;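 active means z-score under -3 and OD600 up to 0.15 on both plates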;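 further: plate controls were untreated wells for no effect and antibiotic for full effect; wells of about 80 µL received 100 nL stock; the first replicate is given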
# Mtb hypoxia inh – PubChem AID 1159583; M. tuberculosis hypoxia-regulated fluorescent reporter, fluorescence; fluorescence inhibition, % (no concentration beside the values); 300,000 tested, 0.1% active;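 active means 35 to 45% if threefold the growth effect, above 45% if 1.5-fold the growth effect; inactive means the rest, general growth blockers included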;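 further: wells of about 50 µL received 100 nL stock; 0% = vehicle wells and 100% = reference inhibitor wells; whole bacteria with a GFP reporter of the hypoxia response; strong numbers were not always called active; many hits fall short of the cut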
# Autofluor counter – compound fluorescence in toxin protease inhibitor counterscreen. compound autofluorescence counterscreen, microsphere flow cytometry; hits give high values. fluorescence intensity (test concentration not listed). 360,000 tested, 3.1% active;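 active means at least 3 SD above the mean of all compounds, about 16000 in these data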;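 further: 100 nL of 1 mM stock went into each well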
# Mtb hypoxia inh growth – second read-out of Mtb hypoxia inh, no call of its own (marks repeat the call); growth inhibition, %; measured here: M. tuberculosis growth (absorbance);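 0% = vehicle and 100% = reference antibiotic; read after six days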
# * marks the source's active call; other numbers are inactive results; x = not tested or not shown; & = joins results of further samples.
SMILES,BJeLR viability,PrP 5UTR inh,RN4220 kill,Sa ugtP lethal,Mtb hypoxia inh,Mtb hypoxia inh growth,Autofluor counter
COc1ccc(-c2ccc(CCC(=O)O)n2NC(=O)c2ccc(C(C)(C)C)cc2)cc1,-4,-17,0.3,24,0,9,5160
COc1ccc(C2=NN3C(C2)c2ccccc2OC3c2cccs2)cc1 (configuration not stated),-7,-119,4.9,8,7,0,4648
CN(C)c1ncnc(N(C)C)c1[N+](=O)[O-],-18,-4,3.8,0,12,11,5069
COc1cc(C(=O)Oc2cccc(C=NNC(=O)c3cccnc3)c2)cc(OC)c1OC,x,x,-0.2,0,16,-1,x
CC(C)CCN(C(=O)COc1ccc(C#N)cc1)c1c(N)n(Cc2ccccc2)c(=O)[nH]c1=O,-2,x,-1.3,-3,-2,1,x
O=C(NCc1ccccc1)NC1CCCCC1,5,-56,-2.6,0,x,x,9851
N#Cc1ccc(C=NNC(=O)c2ccccc2F)cc1,x,x,2.0,1,8,4,x
CCN(CC)CCCOc1ccc(Cl)c(Cl)c1,-9,-22,5.0,4,8,7,2056
COc1ccc(C2C3(C#N)C(N)=NC(OC)(OC)C23C#N)cc1 (configuration not stated),-6,-3,x,x,x,x,4544
CCOC(=O)C1=C(CSc2nc(C)ccc2C#N)OC(N)=C(C#N)C1c1cccc(OC)c1OC (configuration not stated),5,-17,-2.6,-8,x,x,2813
CCC(OC(=O)CC1Sc2ccccc2NC1=O)C(=O)NCC1CCCO1 (configuration not stated),0,-1,1.0,8,9,4,7132
CC1Cc2ccccc2N1C(=O)COC(=O)CCc1nc2ccccc2c(=O)[nH]1 (configuration not stated),2,-10,3.9,6,-1,0,2698
Cc1cc(=O)[nH]c(N2CCN(Cc3ccccc3)CC2)n1,-2,-6,2.2,9,11,1,10349
CCN(CC(=O)Nc1ccccc1C(F)(F)F)C(=O)c1ccc2c(=O)n3c(nc2c1)CCC3,x,-18,4.0,2,9,4,3443
COc1cc(/C=N/NC(=O)Cc2ccccc2)cc([N+](=O)[O-])c1O,5,-24,x,x,x,x,3658
COc1ccc(-c2oc3ccc(N4CCOCC4)cc3c2C#Cc2ccc(N)cc2)cc1,2,14,-9.8,4,1,3,3860
COc1ccc(N2CCN(C(=O)NCc3ccc(C)cc3)CC2)cc1,3,-3,-3.4,-1,-2,11,3947
Cc1ccc(S(=O)(=O)NC(CC(=O)N2CCC3(CC2)OCCO3)c2ccco2)cc1 (configuration not stated),-5,-13,-0.3,-1,x,x,2445
Cc1onc(-c2ccccc2)c1C(=O)NC(=S)NNC(=O)c1ccccc1O,-18,8,61,34,-1,-6,2530
CCOC(=O)CSc1nc(N2CCOCC2)c2c(c1C#N)CC(C)(C)OC2,-5,-4,0.7,5,1,3,3687

# 6 compounds already listed, arranged by SMILES length, ascending.
SMILES,BJeLR viability,PrP 5UTR inh,RN4220 kill,Sa ugtP lethal,Mtb hypoxia inh,Mtb hypoxia inh growth,Autofluor counter
CCC(OC(=O)CC1Sc2ccccc2NC1=O)C(=O)NCC1CCCO1 (configuration not stated),0,-1,1.0,8,9,4,7132
CCOC(=O)CSc1nc(N2CCOCC2)c2c(c1C#N)CC(C)(C)OC2,-5,-4,0.7,5,1,3,3687
Cc1onc(-c2ccccc2)c1C(=O)NC(=S)NNC(=O)c1ccccc1O,-18,8,61,34,-1,-6,2530
COc1ccc(-c2oc3ccc(N4CCOCC4)cc3c2C#Cc2ccc(N)cc2)cc1,2,14,-9.8,4,1,3,3860
Cc1ccc(S(=O)(=O)NC(CC(=O)N2CCC3(CC2)OCCO3)c2ccco2)cc1 (configuration not stated),-5,-13,-0.3,-1,x,x,2445
CCN(CC(=O)Nc1ccccc1C(F)(F)F)C(=O)c1ccc2c(=O)n3c(nc2c1)CCC3,x,-18,4.0,2,9,4,3443

# Later entries:
SMILES,BJeLR viability,PrP 5UTR inh,RN4220 kill,Sa ugtP lethal,Mtb hypoxia inh,Mtb hypoxia inh growth,Autofluor counter
c1ccc2c(-c3csc(-c4ccncc4)n3)c[nH]c2c1,1,-15,-17,11,-1,4,4202
CN(C)C(=NS(=O)(=O)c1ccc(Cl)cc1)c1ccc(F)cc1,x,x,2.9,4,17,8,x
O=C1CSC(c2cccc([N+](=O)[O-])c2)N1CCc1ccccc1 (configuration not stated),8,-24,0.6,2,22,13,3978
Nc1cccc(-c2ccc(CO)o2)c1,-8,-8,3.6,-1,7,10,2220
COc1ccc(CCC(=O)O)c(O)c1,0,-9,1.2,9,x,x,4323
CCc1nn(CC(=O)NCCN2CCN(C)CC2)c(=O)c2cc3c(OC)cccc3n12,-1,-1,1.5,4,4,7,5310
O=C1NC2(CCCc3ccccc32)C(=O)N1CCOc1ccc(Br)cc1 (configuration not stated),-6,-11,-7.9,-3,x,x,4372
Cc1ccc(/C=N/NC(=O)CN2CCN(Cc3ccccc3Cl)CC2)o1,-7,-8,x,x,x,x,5244
COc1ccc(NS(=O)(=O)c2ccc(C)c(C(=O)NCC(c3cccs3)N3CCOCC3)c2)cc1 (configuration not stated),0,-11,1.2,3,5,-5,5443
CC(C)(C)OC(=O)N1CCC[C@H]1C(=O)N/N=C/c1ccc2nccnc2c1,0,-25,x,x,x,x,5203
COc1cccc(-c2cc(C(=O)O)[nH]n2)c1,-2,-31,6.7,-5,x,x,2978
CC1CCCN(S(=O)(=O)c2ccc3c(c2)n(C)c(=O)c(=O)n3C)C1 (configuration not stated),7,-5,1.9,-8,-4,-4,4237
O=C(NCC1CCCO1)c1cc2ccccc2o1 (configuration not stated),-7,-16,5.5,11,x,x,5177
CCOC(=O)C1=C(C)c2ccccc2OC1C(=O)OCC (configuration not stated),x,-19,2.0,3,5,-1,3941
CCOC(=O)c1cccc(NC2c3ccccc3C(=O)N2Cc2ccco2)c1 (configuration not stated),6,-6,-13,-1,0,9,4396
Cc1nn(-c2ccccc2)c(C)c1/C=N/NC(=O)c1cc(C(C)(C)C)[nH]n1,-1,-14,x,x,x,x,2370
COc1ccc(Cl)cc1C(=O)NNC(=O)CSc1nncn1C,x,-14,2.6,2,4,7,4483
CN1CCN(c2ccc(C(=O)c3cn(-c4ccc(F)c(Cl)c4)nn3)cc2)CC1,4,-7,1.8,1,3,19,3334
Cc1ccc(-n2ncc3c(=O)[nH]c(SCC(=O)N4CCCC4)nc32)cc1C,12,-12,6.5,16,8,3,4463
O=C(CN1CCN(S(=O)(=O)c2ccc3ccccc3c2)CC1)NC(=O)NC1CCCCC1,9,-4,-4.8,-1,x,x,3057

# Record cards, as listed above. Order of values: BJeLR viability	PrP 5UTR inh	RN4220 kill	Sa ugtP lethal	Mtb hypoxia inh	Mtb hypoxia inh growth	Autofluor counter
# `COc1ccc(Cl)cc1C(=O)NNC(=O)CSc1nncn1C` in the list: x	-14	2.6	2	4	7	4483
# `O=C(NCC1CCCO1)c1cc2ccccc2o1` (configuration not stated) in the list: -7	-16	5.5	11	x	x	5177

# (continued)
SMILES,BJeLR viability,PrP 5UTR inh,RN4220 kill,Sa ugtP lethal,Mtb hypoxia inh,Mtb hypoxia inh growth,Autofluor counter
COc1ccccc1N1CCN(C(=O)c2ccc3[nH]c4c(c3c2)CC(C)CC4)CC1 (configuration not stated),-3,-9,-2.8,-22,12,0,2096
CCOC(=O)Cn1c(-c2cccnc2)nc(-c2ccccc2)c1-c1ccccc1,6,-14,0.9,6,3,-1,4344
Cc1ccc(C2=NN(CCC(=O)NCc3ccc4c(c3)OCO4)C(=O)CC2)cc1,-2,-14,-3.6,-4,-10,7,2442
COC(=O)Cc1csc(Nc2ccc(Cl)cc2)n1,-18,-32,-1.5,0,-4,6,2475
O=c1c(Cc2ccc(Cl)cc2)c(O)ccn1Cc1cccs1,1,2,4.4,-3,-1,2,3042
COc1ccc2oc(=O)c(C(=O)NCCc3ccc(OC)c(OC)c3)cc2c1,3,-24,4.2,-4,10,4,3862
CCc1cccc(OCC(O)Cn2c(N3CCCCC3)nc3c2c(=O)[nH]c(=O)n3C)c1 (configuration not stated),-11,-25,6.9,5,5,7,3562
COC(=O)c1ccc(C)c(NC(=O)CSc2sc3c(O)cc(=O)[nH]c3c2C#N)c1,-1,-26,2.5,-2,8,16,5420
S=C(c1ccc(N2CCOCC2)cc1)N1CCCCC1,-8,-19,-1.5,2,x,x,4133
CCCC1CCC(C(=O)Nn2c(C)nc3ccccc3c2=O)CC1 (configuration not stated),-3,-4,7.9,-3,0,9,5674
CC1COC(=O)C(Cc2ccc(F)cc2)CCC=CCC(CC(=O)N(CCO)Cc2ccccc2)C(=O)N1 (configuration not stated),x,x,6.0&-0.3,-9&-4,0&9,6&4,x
CCOc1ccc(NC(=O)COC(=O)CC2CCCCC2)cc1,x,-19,-0.6,4,1,-1,3911
COc1cc2[nH]c(=S)n(CC3CCCO3)c(=O)c2cc1OC (configuration not stated),-11,-24,5.5,4,17,2,10011
CC(=O)c1cccc(NC(=S)N2CCC(Cc3ccccc3)CC2)c1,-2,9,0.8,5,9,3,4578
Cc1ccccc1N(C)C(=O)c1coc(=O)c2ccccc12,2,-37,5.6,-6,14,-4,9346
O=C(CSc1nnc(-c2ccc(S(=O)(=O)N3CCOCC3)cc2)o1)c1ccccc1F,-13,-19,-2.7,-8,3,8,9402
COc1ccc(O)c(C=NNC(=O)c2c(C)nnn2-c2nonc2N)c1,x,x,3.7,8,-2,-1,x
COC(=O)c1ccc(Cl)c(NC(=O)CN(c2ccc(OC)cc2)S(=O)(=O)c2ccccc2)c1,-2,-6,9.1,-6,-2,5,3285
COc1ccc(-c2cc(=O)oc3cc(OCC(=O)NCc4ccccn4)ccc23)cc1,3,54,-2.1,-10,x,x,5633
Cc1cc(C)cc(OCC(=O)Nc2ccc3c(c2)OCO3)c1,-4,-6,0.3,2,-3,-2,2075
CC(C)c1c(O)c2c(n(-c3ccccc3)c1=O)CCCC2,16,-11,1.2,-1,-4,8,2179
CN(C)c1ccc(S(=O)(=O)N2CCCCC2)cc1NC(=O)C1=COCCO1,-3,-10,3.5,5,7,-2,5984
COCCCn1c(=C(C#N)C(N)=O)sc(=Cc2ccc(OC(F)F)c(OC)c2)c1=O,x,x,3.0,-2,-12,2,x
Cc1ccc(C(=O)N/C(=C/c2ccco2)C(=O)NCCc2c[nH]c3ccccc23)cc1C,-4,-17,x,x,x,x,2760
CCCC=NNc1nnc(Cc2ccc(OC)c(OC)c2)c(=O)[nH]1,x,x,2.8,15,5,-1,x
COC(=O)c1c(NC(=O)CCC(=O)O)sc(Cc2ccccc2)c1C,-6,-10,7.3,8,15,14,4405
O=C(OCCc1cc2ccccc2c(=O)o1)c1ccc(F)cc1,x,-13,14,20,1,-4,3938
NS(=O)(=O)c1ccc(CNC(=O)C(c2ccccc2)c2ccccc2)cc1,-4,7,-1.9,-2,-2,5,3952
O=C(NC(=S)Nc1ccccc1[N+](=O)[O-])c1cncc(Br)c1,-4,-23,6.5,12,6,7,3904
